# Screens deposited in PubChem by several laboratories.
# Bfl-1 A1 inh: caspase 3/7 activation in MEF A1-2A-BIM cells, primary screen, A1 inhibitor project, cell-based, luminescence, HTS. Caspase-Glo 3/7 luminescence, 3 h; percent of clofoctol response, vehicle zero. caspase activation, % (no concentration beside the values). 330,000 tested, 0.066% active;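 active = over half of replicate activation scores above 10%, or exactly half above 10 with the replicate mean above 10; inconclusive = replicate mean below 10 yet half the replicates above 10; inactive = over half of replicates below 10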;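 also: wells of about 30 µL received 50 nL stock; many hits fall short of the cut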
# Beta apoptosis: inhibitors of cytokine-induced beta cell apoptosis, primary screen, luminescence; AID 435005, 2010; INS-1E cytokine-induced death, ATP luminescence, 48 h; percent of positive-control rescue, neutral wells zero; 300,000 tested, 0.8% active; protection from apoptosis, % (concentration not given with the values);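 active = all replicates at 75% or more, or half of them and the mean; inconclusive = half reach 75% but not the mean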;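 also: 0% = cytokine-treated negative control wells and 100% = positive control rescue; higher means more ATP so stronger rescue from cytokine killing; wells of about 40 µL received 100 nL stock; the first replicate is given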
# T cruzi repl: inhibitors of intracellular T. cruzi growth, primary screen, luminescence, NIH3T3 host cells; T. cruzi beta-gal in NIH3T3, 90 h; inhibition, % (no concentration beside the values); 300,000 tested, 1.4% active; AID 1885, 2009;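 active = mean inhibition across valid replicates above about 55%, limit read from the data; inconclusive = mean below that limit but half or more replicates reach it; inactive = mean below it, under half of replicates reach it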;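 also: signal also drops with host cell toxicity which is not excluded here; 0% = plate median of DMSO wells and 100% = zero luminescence signal; higher percent means less beta-gal luminescence so fewer parasites; stock transfer was 50 nL into about 50 µL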
# AF4-AF9 inh: inhibitors of AF4 peptide binding to AF9, primary screen, biochemical, AlphaScreen, biotin-AF4 peptide, FLAG-AF9, single point. inhibition, % at 10 µM. 350,000 tested, 0.47% active;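 active = every replicate reaching a set inhibition limit, whatever the replicate mean, cut at about 25% in these data; inconclusive = mean inhibition reaches that limit but some replicates miss it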;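 also: 0% = plate neutral control median and 100% = total signal loss; the record names both 10 and 1 µM as test concentration; the first replicate is given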
# LANA-H2B inh: blockers of LANA interaction with H2A/H2B – biochemical, FP readout, HTS, primary screen | Protein LANA1 (Human herpesvirus 8 type P (isolate GK18)), Q9QR71 | cell-free LANA-H2A/H2B peptide, fluorescence polarization | inhibition, % (test concentration not listed) | 320,000 tested, 0.6% active | AID 2629, 2010; in the data active = inhibition mostly above about 10%, no sharp cut-off; inactive = mostly below about 6.7%;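 also: stock transfer was 7.5 nL into about 10 µL; 0% = median of vehicle wells and 100% = median of positive control wells; one replicate is shown; the record names a cut of 25% in any replicate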
# Target sequence (Q9QR71 whole entry, looked up): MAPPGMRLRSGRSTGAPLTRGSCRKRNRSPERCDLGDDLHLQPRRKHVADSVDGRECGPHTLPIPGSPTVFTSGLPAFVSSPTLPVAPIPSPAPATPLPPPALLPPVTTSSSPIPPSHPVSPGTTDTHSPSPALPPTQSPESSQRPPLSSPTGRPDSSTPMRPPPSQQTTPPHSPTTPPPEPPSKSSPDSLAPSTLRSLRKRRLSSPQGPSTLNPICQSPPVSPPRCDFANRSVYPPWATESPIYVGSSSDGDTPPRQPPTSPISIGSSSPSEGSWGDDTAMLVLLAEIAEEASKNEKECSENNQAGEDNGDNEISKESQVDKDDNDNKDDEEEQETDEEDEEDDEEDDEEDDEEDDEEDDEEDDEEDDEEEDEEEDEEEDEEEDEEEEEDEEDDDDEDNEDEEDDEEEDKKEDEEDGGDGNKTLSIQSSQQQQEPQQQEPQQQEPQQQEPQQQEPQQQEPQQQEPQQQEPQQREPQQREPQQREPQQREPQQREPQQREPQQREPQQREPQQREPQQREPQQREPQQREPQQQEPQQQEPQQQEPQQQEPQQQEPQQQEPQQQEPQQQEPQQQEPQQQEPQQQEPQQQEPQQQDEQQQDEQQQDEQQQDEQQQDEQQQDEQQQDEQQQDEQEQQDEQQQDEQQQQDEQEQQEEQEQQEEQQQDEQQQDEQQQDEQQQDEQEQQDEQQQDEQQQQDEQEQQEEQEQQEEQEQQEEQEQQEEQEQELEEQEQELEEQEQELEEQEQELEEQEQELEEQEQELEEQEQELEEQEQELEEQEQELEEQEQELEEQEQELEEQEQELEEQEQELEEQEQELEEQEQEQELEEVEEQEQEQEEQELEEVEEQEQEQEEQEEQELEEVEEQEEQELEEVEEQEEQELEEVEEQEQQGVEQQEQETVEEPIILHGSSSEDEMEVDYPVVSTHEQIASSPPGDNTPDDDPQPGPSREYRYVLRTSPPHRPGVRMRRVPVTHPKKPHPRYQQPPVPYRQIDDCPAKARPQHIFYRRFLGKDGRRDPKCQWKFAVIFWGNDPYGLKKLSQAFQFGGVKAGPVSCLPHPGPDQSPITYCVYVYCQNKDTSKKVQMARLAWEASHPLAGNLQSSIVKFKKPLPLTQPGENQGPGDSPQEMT
# RanGTP-Impb inh: inhibitors of RanGTP-importin-beta interaction, primary screen, biochemical, FRET, CFP-Ran, YFP-importin-beta, homogeneous | Ran GTPase (GTP-bound) - importin-beta complex | cell-free CFP-Ran/YFP-importin-beta FRET ratio | inhibition, % (no concentration beside the values) | 300,000 tested, 1.1% active;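 active = most replicates above 15%; inconclusive = exactly half above 15%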;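 also: 0% = DMSO wells and 100% = Ran loaded with GDP instead of GTP; wells of about 40 µL received 100 nL stock; the first replicate is given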
# Vif TR-FRET: inhibitors of Vif binding to APOBEC3G peptide, primary screen, biochemical, TR-FRET, GST-Vif 1-94, biotin-A3G peptide, dose response retest (AID 1117319); TR-FRET GST-Vif / biotin-A3G peptide binding; higher % means a stronger effect; test concentration not given here; strong numbers were not always called active; inhibition, %; hits with a dose series show IC50 in µM; 260,000 tested, 0.57% active;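 active = above the screen mean plus three standard deviations and confirmed in dose response; inconclusive = results disagree or hit not tested in dose response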;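 also: Vif residues 1-94 fused to GST binding biotinylated APOBEC3G peptide 110-148; 0% = full assay without inhibitor and 100% = GST in place of GST-Vif; retest series ran down from 100 µM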
# Calb FLC: C. albicans growth inhibition with fluconazole, primary screen, CaCi-2 strain, Alamar Blue fluorescence | C. albicans CaCi-2 (fluconazole-resistant clinical isolate) + fluconazole, 48 h | growth inhibition, % (no concentration beside the values) | 300,000 tested, 0.57% active | AID 1979, 2009;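 active = most replicates above 75%; inconclusive = exactly half above 75%; inactive = most below 75%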;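 also: all wells also contain fluconazole at 8 µg/ml as a sub-toxic cotreatment; 0% = median of DMSO wells and 100% = median of geldanamycin control wells; wells of about 8 µL received 7.5 nL stock; the first replicate is given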
# Active calls of the source: *; ? = inconclusive; nt = not tested or not shown; & = joins results of further samples.
SMILES,Bfl-1 A1 inh,Beta apoptosis,T cruzi repl,AF4-AF9 inh,LANA-H2B inh,RanGTP-Impb inh,Vif TR-FRET,Calb FLC
O=c1c2ccccc2[nH]c(=S)n1Cc1ccc2c(c1)OCO2,0.8,-4,-18,-2.6,2.5,4.2,-41%,-1
CC(=O)N1CCn2c3ccc(C)cc3c3cccc1c32,0.8,-6,5,nt,3.0,-3.0,-8%,21
O=C(Nc1ccccc1Oc1ccccc1)C1CC1,1.5,1,7,nt,-4.4,0.1,6%,-7
CCOC(=O)C(C)/C(C)=N\Nc1ccc([N+](=O)[O-])cc1[N+](=O)[O-] (stereo not given),0.3,12,-1,9.7,0.8,-1.7,8%,-5
Nc1ccccc1SCc1ccccc1Cl,0.0,-4,7,-0.4,-0.5,2.7,3%,-5
CC(=O)NCC1CCCN(Cc2cn(-c3ccccc3F)nc2-c2cc(C)sc2C)C1 (stereo not given),-0.1,-5,-2,-28,-0.1,-0.2,nt,6
O=C(/C=C/c1ccc(Br)cc1)NC1CCCCCC1,-3.2,5,19,nt,2.7,1.1,-2%,0
COc1ccc(CNC(=O)C(C)n2nc(C)n3c(cc4occc43)c2=O)cc1 (stereo not given),-0.5,0,-2,-2.5,2.5,7.5,7%,21
CCCC(=O)Nc1ccc(-c2nc3cc(C)ccc3o2)cc1,-11,-2,14,nt,1.8,-2.9,-4%,61
COc1ccc(Cl)cc1NC(=O)Nc1cnccn1,-0.6,1,4,-1.3,-3.7,-3.5,-12%,5
COc1ccc(CCNC(=O)c2ccccc2NC(=O)C2=C(C)OCCS2)cc1OC,-1.5,-2,5,0.6,-0.2,7.5,8%,-22
C1=CCN(Cc2ccccc2)C1,1.0,-6,-10,-4.0,0.0,1.7,nt,nt
COCCNC(=O)c1onc(CSc2cccc(C)c2)c1C(=O)O,1.7,-2,2,0.3,0.3,-1.0,-1%,-1
CCO/C=C1/C(=O)N(c2ccccc2OC)C(=O)c2ccccc21,0.3,-9,-13,0.9,5.3,-3.0,8%,-3
CCOc1ccccc1N(CC(=O)Nc1ccc(S(=O)(=O)N2CCOCC2)cc1)S(=O)(=O)c1ccccc1,0.7,6,41,nt,3.2,-5.0,0%,-10
Cc1cc(C(=O)N2CCN(c3ccc(F)cc3)CC2)on1,?,2,-11,5.7,0.1,1.8,nt,-2
Cc1ccccc1C(=O)N1CCC(C(=O)OCc2ccccn2)CC1,0.0,-3,nt,-2.7,1.9,nt,3%,nt
C=CC(=O)Nc1cccc(Oc2ncnc3[nH]cc(-c4cnc5ccccc5c4)c23)c1,1.7,-53,nt,-1.6,-0.6,nt,nt,nt
N/C(=N\OC(=O)c1ccc2c(c1)OCO2)c1ccc(Br)cc1,-6.0,-2,16,-2.5,1.0,-2.4,4%,?
Cc1ccc(CNS(=O)(=O)c2ccc3c(c2)NC(=O)CO3)cc1,-0.4,2,1,-7.1,6.1,0.2,nt,6
CC1CC(C)CN(S(=O)(=O)c2ccc3c(c2)C(C)(C)C(=O)N3C)C1 (stereo not given),1.1,-5,-5,-0.4,0.1,-0.5,?,0
Cc1ccc2cc(CN(CC3CCCO3)C(=S)Nc3ccccc3)c(=O)[nH]c2c1C (stereo not given),0.1,9,-26,nt,4.2,18*,11%,13
Cc1ccc(C)c(Nc2ccc(C(=O)NCCc3ccccc3)cn2)c1,0.3,5,9,-4.7,-0.7,-1.7,nt,2
Cc1cc(C(=O)NCCCN2CCCC2=O)no1,0.6,-4,-9,nt,-1.9,2.1,52%,17
Cc1ccc(C)c(N2CCN(C(=O)C(Cc3ccccc3)n3cccc3)CC2)c1 (stereo not given),-0.1,-2,46,-11,-4.4,-0.8,-1%,7
CCOc1cc(C2CC(=O)c3c(ccc4ccccc34)N2)ccc1O (stereo not given),-0.7,-3,-1,nt,-2.2,-0.6,-2%,-14
O=c1[nH]c2ccc(S(=O)(=O)Nc3ccc(Br)cc3)cc2[nH]1,2.4,6,-13,-0.6,1.3,4.0,nt,?
O=c1c(/C=N/OCc2ccc(Cl)cc2Cl)c[nH]n1-c1cccc(Cl)n1,-0.6,-2,12,-2.1,2.3,1.8,-2%,-2
CN(C)CCN(C(=O)c1ccc2ccccc2c1)c1nc2ccc(F)cc2s1,0.0,-4,31,nt,-0.3,2.7,nt,5
Cc1cccc(C(P(=O)(c2ccccc2)c2ccccc2)P(=O)(c2ccccc2)c2ccccc2)n1,2.1,-11,3,nt,4.3,-4.6,nt,41
COC1CCCCC1Nc1ccc(C)c(C)c1 (stereo not given),1.5,-5,-10,-2.7,0.6,-1.3,2%,-16
O=C(CN1CCOCC1)N/N=C/C(Br)=C\c1ccccc1,-0.3,-4,-33,0.9,0.6,5.4,nt,12
O=C(Nc1cccc(NC(=O)c2ccc(Br)o2)n1)c1ccc(Br)o1,-1.0,-6,14,nt,-0.2,2.6,-47%&-1%,0
O=C(Nc1ccc(Oc2ccccc2)cc1)c1ccco1,-4.4,2,-15,nt,-4.3,-2.6,18%,1
CCC1CCCCN1Cc1nc2c(c(=O)n(C)c(=O)n2C)n1CCC(C)C (stereo not given),-0.1,10,-2,2.0,0.9,1.7,nt,0
CC1(C)c2[nH]c3ccccc3c2C[C@H]2C(=O)N(Cc3ccccc3F)C(=O)N21,0.7,7,29,3.2,2.6,3.2,nt,0
CCc1ccc(CN(C)C(=O)c2cc(=O)c3ccccc3o2)cc1,1.0,-2,1,0.6,-4.5,3.3,nt,-1
O=C(CN1C(=O)C2CC=CCC2C1=O)Nc1nc2ccc(F)cc2s1 (stereo not given),-0.9,-3,-10,5.5,-2.6,-1.9,-11%,-5
COc1c(/C=N/NC(=O)[C@H]2C[C@@H]2c2ccccc2)c(CCN(C)C(C)=O)cc2c1OCO2,-0.4,-3,12,-0.8,-2.0,1.7,-5%,-8
Cc1ccc(C2c3[nH]c4ccccc4c3C[C@H]3C(=O)N(c4ccccc4C(=O)NCCN4CCOCC4)C(=O)N23)cc1 (stereo not given in full),-0.5,nt,16,8.2,-1.5,-1.1,nt,1
O=C1CCC(=O)N1OCCCOc1ccc(Br)cc1Cl,nt,nt,-1,nt,nt,0.1,20%,11
CCOc1ccccc1NC(=S)NNS(=O)(=O)c1c(C)cc(C)cc1C,0.2,-7,3,6.5,-0.3,0.9,nt,-4
Cc1cc(Br)ccc1NC(=O)CN(C)C(=O)C1CSC2(C)CCC(=O)N12 (stereo not given),-1.3,3,nt,-3.9,6.3,nt,-9%,nt
CCCCOC(=O)c1ccc(NC(=O)C2CCCO2)cc1 (stereo not given),1.1,-7,-4,nt,2.0,0.4,2%,-22
CCC1(c2ccccc2)NC(=S)N(c2ccc(C)c(C)c2)N1 (stereo not given),-0.4,-2,-9,-7.7,-16,-0.4,1%,-15
COc1ccc(OC)c(N(CC(=O)Nc2cccc(C(F)(F)F)c2)S(C)(=O)=O)c1,0.0,0,3,0.6,3.3,-2.9,11%,5
O=C(NCCc1ccccc1)c1cnc2n(c1=O)CCS2,-0.2,-1,-4,-1.5,13*,0.9,3%,-2
CCOc1ccc(CNC(=O)CCCn2nc(CC)n3c(cc4occc43)c2=O)cc1,1.3,8,4,4.3,-3.8,2.4,1%,-3
COc1cc(N2C(=O)CSC2=S)cc(OC)c1OC,-1.0,4,-19,-0.2,0.0,-1.0,nt,5
Cc1occc1C(=O)N/N=C/c1cnn(C)c1C,-2.4,-2,-8,nt,-3.4,-2.4,2%,-13
O=C(NNC(=O)c1ccc(F)cc1)C(=O)N1CCCCC1,-0.8,4,-6,nt,-0.1,7.2,nt,3
CC(=O)Nc1ccc(NC(=O)N2CCCCC2)cc1,0.4,-6,-20,nt,3.7,2.5,9%,-4
CCCCc1ccc(NC(=S)NCCO)cc1,-0.4,1,1,-1.1,-2.6,-1.4,nt,-2
CCCc1cc(=O)[nH]c(SCC(=O)c2cc(C)n(-c3cc(C)on3)c2C)n1,0.1,-8,-13,-3.9,-3.1,-0.7,15%,24
CCOC(=O)N1CCN(c2c(N3CCN(C(=O)OCC)CC3)c(=O)c2=O)CC1,0.0,-5,-15,-22,-2.4,-0.2,23%,0
CC(=O)OCCNC(=O)c1cccnc1,-0.8,-25,-6,nt,0.6,-1.6,-1%,?
CC(=O)C1=C(O)C(=O)N(c2cc(C(C)(C)C)on2)C1c1ccc(Br)cc1 (stereo not given),-0.8,-1,5,nt,0.2,-4.7,8%,25
CCC(=O)c1ccc(OC(=O)c2cnccn2)cc1,-0.5,-10,-16,0.4,-3.4,0.1,8%,0
N#Cc1ccc(NC(=O)c2cc(=O)c3ccccc3o2)cc1,-0.1,-3,-34,-3.3,-2.1,4.2,-3%,0
CCOc1ccc(NC(=S)Nc2ccc(OCc3ccccc3)cc2)cc1,-0.2,-3,6,nt,4.6,-0.1,7%,-2

# Next section
SMILES,Bfl-1 A1 inh,Beta apoptosis,T cruzi repl,AF4-AF9 inh,LANA-H2B inh,RanGTP-Impb inh,Vif TR-FRET,Calb FLC
CC1(C)N=C(N)NC(Nc2cccc(Br)c2)=N1,1.5,-4,-13,nt,-0.6,-0.9,-4%,-2
COc1ccccc1C(=O)NCC(=O)NC(C)c1ccc(-n2ccnc2)cc1 (stereo not given),-0.4,-1,-2,-0.7,-1.0,2.7,nt,-6
CCCn1c(-c2ccc(C(=O)OC)cc2)nc2c1c(=O)[nH]c(=O)n2Cc1ccccc1,-0.3,0,5,-0.2,1.5,-1.2,nt,-3
CCOC(=O)c1cc(S(=O)(=O)N2CCC(C)CC2)cn1C,-0.4,1,-11,-1.5,3.7,2.4,nt,-2
COc1cc(NC(=O)c2cc(OC)c(OC)c(OC)c2)cc(-n2cnnn2)c1,-0.9,4,-10,2.3,-2.6,-0.6,0%,6
COC(CN(C)C(C(=O)NC1CCCCC1)c1ccccc1)OC (stereo not given),0.2,-5,-2,-1.3,-1.8,2.2,nt,5
Cc1nn(Cc2noc(C(=O)NCc3ccc4c(c3)OCO4)n2)c(C)c1Br,0.2,1,-3,2.7,-8.6,2.5,nt,-8
O=C(Nc1ccncc1)c1cn(-c2ccccc2)nc1-c1cccs1,0.0,18,52,nt,1.0,2.0,-89%,-12
Cc1ccc(CCNC(=O)Cn2ncc3c([nH]c4ccccc43)c2=O)cc1,-2.2,-7,-1,-2.3,1.1,2.0,0%,-11
O=C(CCc1c[nH]c2ccccc12)N1CCCC1,0.6,-5,0,2.1,0.5,-0.2,nt,3
CCCCc1ccc(CC(=O)Nc2cc(S(=O)(=O)N3CCOCC3)ccc2O)cc1,2.3,-2,nt,-0.8,2.0,nt,nt,nt
CC(=O)N1c2ccccc2C(=O)OC1c1cccnc1 (stereo not given),-0.3,-3,-11,nt,-2.8,0.3,0%,-16
